Screening results as filed in PubChem.
KCNQ2 inh – KCNQ2 potassium channel inhibitors, primary screen, cell-based, CHO-K1, FluxOR thallium flux, B-score (AID 2156). B-score at 10 µM. O88943. 20 min; active compounds read low; only compounds with negative scores are shown here; some inactives read as strong as hits. hit rate 1.1% among 310,000;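 active = fluorescence ratio B-score at most minus 3 library SDs, with starting brightness B-score within 2 library SDs, cut at about -5.5 in these data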
Target sequence (O88943 whole entry, looked up): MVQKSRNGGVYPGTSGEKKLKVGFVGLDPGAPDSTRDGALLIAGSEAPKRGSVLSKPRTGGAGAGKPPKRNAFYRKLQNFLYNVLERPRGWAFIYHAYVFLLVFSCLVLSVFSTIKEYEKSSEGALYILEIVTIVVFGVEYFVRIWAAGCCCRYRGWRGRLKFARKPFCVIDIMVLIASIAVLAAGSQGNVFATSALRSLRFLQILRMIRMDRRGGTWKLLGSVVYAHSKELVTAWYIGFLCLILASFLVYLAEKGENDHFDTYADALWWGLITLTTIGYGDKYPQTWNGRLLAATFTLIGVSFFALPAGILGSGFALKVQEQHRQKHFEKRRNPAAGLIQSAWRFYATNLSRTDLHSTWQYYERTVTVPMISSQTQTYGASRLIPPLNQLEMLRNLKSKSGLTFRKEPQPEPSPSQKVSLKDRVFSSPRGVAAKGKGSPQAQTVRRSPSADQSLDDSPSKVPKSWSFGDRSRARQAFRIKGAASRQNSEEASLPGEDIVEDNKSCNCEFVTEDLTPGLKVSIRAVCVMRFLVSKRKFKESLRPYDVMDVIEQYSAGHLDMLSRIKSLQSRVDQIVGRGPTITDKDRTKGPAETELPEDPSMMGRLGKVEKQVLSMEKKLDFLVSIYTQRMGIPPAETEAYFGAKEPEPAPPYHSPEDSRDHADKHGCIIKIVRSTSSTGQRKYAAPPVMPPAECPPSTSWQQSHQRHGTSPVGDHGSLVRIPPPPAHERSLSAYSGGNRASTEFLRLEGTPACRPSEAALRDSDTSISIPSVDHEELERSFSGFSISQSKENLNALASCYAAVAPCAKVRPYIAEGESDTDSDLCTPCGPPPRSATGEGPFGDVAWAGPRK
KCNQ2 inh baseline – further read-out of KCNQ2 inh, marked with its call; B-score; measured here: initial fluorescence intensity artifact check;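 brightness before thallium and not channel activity; 0 = typical well and far values either way flag optical interference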
Numbers without * were called inactive; i = inactive. Some of the compounds tested; count on the stated rates, not on these rows.

SMILES	KCNQ2 inh	KCNQ2 inh baseline
CCc1ccc(N2CC(C(=O)Nc3ccc(S(=O)(=O)Nc4nccs4)cc3)CC2=O)cc1 (stereo not given)	i	1.8
Cc1ccc(-c2cc(C(=O)Nc3nccs3)c3ccccc3n2)o1	-5.7*	-0.67*
CCc1ccc(NC(=O)C2(C)Cc3ccccc3C(=O)O2)cc1 (stereo not given)	i	-0.03
Cc1ccc(-c2[nH]ncc2/C=C(\C#N)C(=O)NC2CCCCC2)cc1	i	-0.67
O=C(Nc1ccccn1)Nc1ccccc1[N+](=O)[O-]	i	1.7
COc1cccc(/C=C2\SC(=S)N(CCCC(=O)N3CCCCC3CCO)C2=O)c1 (stereo not given)	i	1.5
CN=C1c2cc3cc(OC)ccc3n2CCN1C	i	0.74
COc1ccc(CNS(=O)(=O)c2c(C)[nH]c(C)c2C(=O)N2CCCCC2)cc1	i	1.1
CCCCCCCNC1=CC(=O)CC(c2ccco2)C1 (stereo not given)	i	0.02
Cc1c(-c2nc(N)nc(Nc3ccc(F)cc3)n2)oc2ccccc12	i	1.3
O=C(COc1ccccc1F)N1c2ccccc2CCc2ccccc21	i	-0.01
O=C(O)c1ccc(Cl)c(S(=O)(=O)Nc2ccccc2N2CCOCC2)c1	i	0.5
O=[N+]([O-])c1ccccc1S(=O)(=O)NCc1ccc(F)cc1	i	0.23
O=C(c1cc2nc(-c3ccco3)cc(C(F)(F)F)n2n1)N1CCN(Cc2ccccc2)CC1	i	1.1
O=C1N(Cc2cccnc2)C[C@@H]2C[C@@H](c3ccccc3C#Cc3ccccc3)N3CCC[C@@]123	i	-0.85
CC(C)C(=O)N(Cc1ccccc1)S(=O)(=O)c1ccc2c(c1)oc(=O)n2C	i	0.37
O=C(NCCc1ccccc1)c1cc(-c2ccncc2)nc2ccc(S(=O)(=O)N3CCOCC3)cc12	i	1.6
CCOc1ccccc1C(=O)NCCc1cnc[nH]1	i	1.6
Cc1ccc(NC(=S)c2ccccc2)cc1	i	-0.51
COc1cccc(C2CC(c3ccccc3)Nc3nc(N)nn32)c1 (stereo not given)	i	1.4
O=C(O)c1csc(-c2cccs2)n1	i	-0.02
O=C(ONC1=NCCCCC1)c1cccc([N+](=O)[O-])c1	i	0.51
Cc1ccc(S(=O)(=O)Nc2ccccc2CNc2ncc(Br)cc2Br)cc1	i	-2.6
Cc1ccc(SCc2ccc(C(=O)Nc3ccccc3Br)cc2)cc1	i	1.4
Cc1c(C)c2c(OCC(=O)NCC(=O)NCC(=O)O)cc3c(c2oc1=O)CCC(C)(C)O3	i	3
CC(C)C[C@H](NC(=O)OC(C)(C)C)C(=O)N[C@@H](CO)[C@H](O)[C@@H]1C[C@@H]1C(=O)NC1CC1	i	0.04
Cc1ccc(C#CC[N+](C)(C)CC#Cc2ccccc2)cc1	i	1.1
COc1ccccc1-n1nc(C(=O)Nc2ccc3c(c2)OCO3)c2ccccc2c1=O	i	-0.02
CCS(=O)(=O)N1Cc2ccccc2CC1C(=O)Nc1nc2ccccc2[nH]1 (stereo not given)	i	-0.37
CCC1(C)C2(C#N)C(N)=NC(OC)(OC)C12C#N (stereo not given)	i	-0.01
Cn1c(C(=O)OC(C(=O)NC2CCCC2)c2ccncc2)cc2sccc21 (stereo not given)	i	0.76
O=C(CSc1ccc(Br)cc1)N1CCN(C(=O)c2ccco2)CC1	i	0.89
Cc1ccc(C(=O)N/C(=C\c2cccs2)C(=O)N2CCCCCC2)cc1	i	-0.61
C/C(N)=C(/C#N)C(=O)CSc1ccc2c(c1)OCCO2	i	-1.5
O=C(NCc1ccc2c(c1)OCO2)C1CCCN(S(=O)(=O)c2cccnc2)C1 (stereo not given)	i	-0.88
Cc1c(C(=O)OCC(=O)NCc2ccc3c(c2)OCO3)cccc1[N+](=O)[O-]	i	-0.51
COc1ccc(C2C(Oc3ccccc3C)C(=O)N2Cc2ccc(F)cc2)cc1OC (stereo not given)	i	0.86
Cc1cccc(C)c1OCCCCCNCCO	i	0.74
COc1ccccc1C(CNC(=O)c1ccc(-c2ccccc2Cl)o1)N1CCCC1 (stereo not given)	i	-0.14
O=C(CN1CCN(S(=O)(=O)c2ccc(Br)cc2)CC1)N/N=C/c1ccc(Br)s1	i	-1.7
CC(OC(=O)CCc1c[nH]c2ccccc12)C(=O)c1ccccc1 (stereo not given)	i	-1.5
CCOC(=O)c1cnc2c(ccc3ccccc32)c1NCCCN(C)C	i	-1.9
CCSCc1nnc(SCC(=O)Nc2cccc(C(C)=O)c2)n1C	i	-0.73
Cc1ccccc1-c1nc(CSc2nc3c(c(=O)[nH]2)CCC3)c(C)o1	i	0.39
Nc1nc2n(n1)C(=O)CC(c1ccccc1)N2 (stereo not given)	i	-0.07
COc1ccc(-n2c(SCC3OCCO3)nc3c(sc(=S)n3-c3ccccc3)c2=O)cc1OC	i	-0.65
CCOC(=O)Cc1nn(Cc2ccccc2)c(=O)c2ccccc12	i	-1.2
O=C(O)c1ccccc1Nc1ccnc(C(F)(F)F)c1	i	1.1
COCc1cc(C)nc(Nc2ccccc2C)c1C#N	i	-0.7
CCCCCCCCCCOC(=O)Cn1c(COc2ccc(Cl)cc2)[n+](C)c2ccccc21	i	9.7
Continued.
SMILES	KCNQ2 inh	KCNQ2 inh baseline
Cc1cc2c(C)cc(=O)[nH]c2cc1NC(=O)CCl	i	2
CCc1cc(C(=O)OC)c(NC(=O)c2cc(Br)cs2)s1	i	-1.2
Cc1nc(-c2cccs2)ccc1C(=O)O	i	-0.13
Cc1cc(C)c2ccc(NN)nc2c1O	i	0.09
Cc1ccc(N2CCN(/N=C/c3cccs3)CC2)cc1	i	-0.6
CCOC(=O)C1(O)CSc2nc3sc(C(=O)O)c(C)c3c(=O)n21 (stereo not given)	i	0.06
O=C(CN(C(=O)c1csnn1)c1ccc(F)c(Cl)c1)NCc1ccc(F)cc1	i	0.1
Cc1cccc(C(=O)NNC(=O)c2ccc(NC(=O)C(C)(C)C)cc2)c1	i	-1.2
Cc1sc2ncnc(OCC(=O)NC(C)C(C)C)c2c1C (stereo not given)	i	-0.32
O=C(NCc1ccc2c(c1)OCO2)c1ccc(CS(=O)(=O)c2ccc(Br)cc2)o1	i	-0.39

Filtered by structure, those above with an NH in an aromatic ring.
SMILES	KCNQ2 inh	KCNQ2 inh baseline
Cc1ccc(-c2[nH]ncc2/C=C(\C#N)C(=O)NC2CCCCC2)cc1	i	-0.67
COc1ccc(CNS(=O)(=O)c2c(C)[nH]c(C)c2C(=O)N2CCCCC2)cc1	i	1.1
CCOc1ccccc1C(=O)NCCc1cnc[nH]1	i	1.6
CCS(=O)(=O)N1Cc2ccccc2CC1C(=O)Nc1nc2ccccc2[nH]1 (stereo not given)	i	-0.37
CC(OC(=O)CCc1c[nH]c2ccccc12)C(=O)c1ccccc1 (stereo not given)	i	-1.5
Cc1ccccc1-c1nc(CSc2nc3c(c(=O)[nH]2)CCC3)c(C)o1	i	0.39
Cc1cc2c(C)cc(=O)[nH]c2cc1NC(=O)CCl	i	2

(listing goes on)
SMILES	KCNQ2 inh	KCNQ2 inh baseline
O=C(N/N=C/c1ccccc1O)C1(O)c2ccccc2-c2ccccc21	i	0.7
CN(c1ccccc1)S(=O)(=O)c1ccc(C(=O)OCC(=O)N2CCOCC2)cc1	i	0.1
COc1ccc(NC(C)=O)cc1S(=O)(=O)Nc1ccc(OCc2ccccc2)cc1	i	-1
O=C(COC(=O)CCCOc1ccc(Cl)cc1Cl)NCc1ccc(F)cc1	i	-0.03
CC(CNC(=O)CCn1c(=O)c2cccn2c2ccc(F)cc21)c1ccccc1 (stereo not given)	i	-0.92
Cc1ccc(NC(=O)c2sc3ccccc3c2Cl)nc1	i	-0.43
Cc1ccc(NS(=O)(=O)c2cc3c(cc2C)NC(=O)CO3)cc1	i	0.19
O=C(CSc1nc(-c2ccccc2Cl)ns1)Nc1ccc2c(c1)OCO2	i	1.5
NC(=O)c1ccsc1NC(=O)COC(=O)CSc1ccc(Cl)cc1	i	0.06
Cc1ccc(SCc2nn(C)c(Cl)c2C=O)cc1	i	0.7

Nothing new here: entries from further up.
SMILES	KCNQ2 inh	KCNQ2 inh baseline
O=C(N/N=C/c1ccccc1O)C1(O)c2ccccc2-c2ccccc21	i	0.7
CN(c1ccccc1)S(=O)(=O)c1ccc(C(=O)OCC(=O)N2CCOCC2)cc1	i	0.1
COc1ccc(NC(C)=O)cc1S(=O)(=O)Nc1ccc(OCc2ccccc2)cc1	i	-1
O=C(COC(=O)CCCOc1ccc(Cl)cc1Cl)NCc1ccc(F)cc1	i	-0.03
CC(CNC(=O)CCn1c(=O)c2cccn2c2ccc(F)cc21)c1ccccc1 (stereo not given)	i	-0.92

Other compounds follow:
SMILES	KCNQ2 inh	KCNQ2 inh baseline
CC1CCN(S(=O)(=O)c2ccc3c(c2)N(CC(=O)NCc2cccnc2)C(=O)CS3)CC1	i	0.24
CC1CC(C)CN(C(=O)Cn2c(=O)c3cccn3c3cccnc32)C1 (stereo not given)	i	-0.51
O=C(COC(=O)Cn1cnc2ccccc2c1=O)NCc1ccccc1Cl	i	-0.01
CCOC(=O)n1n[n+]([O-])c2ccccc21	i	-0.1
O=C(CSc1cccc[n+]1[O-])Nc1ccccc1Oc1ccccc1	i	-0.37
Cc1cccc(C)c1NC(=S)N(Cc1ccccc1)Cc1cccs1	i	-0.42
CC(C)(C)c1ccc(/C=C/C(=O)Nc2nncs2)cc1	i	2.7
O=C(Cn1cnc2ccccc2c1=O)N/N=C/c1ccc(Br)cc1	i	-0.26
COc1ccc(Oc2cc(NN3CCCCC3)c([N+](=O)[O-])cc2[N+](=O)[O-])cc1OC	i	-0.1
Cc1ccc(/C=N/NC(=O)c2cc(C3CC3)nc3ccccc23)o1	i	-0.07

Reprinted from the part before: 3 entries, then new ones.
SMILES	KCNQ2 inh	KCNQ2 inh baseline
O=C(Cn1cnc2ccccc2c1=O)N/N=C/c1ccc(Br)cc1	i	-0.26
COc1ccc(Oc2cc(NN3CCCCC3)c([N+](=O)[O-])cc2[N+](=O)[O-])cc1OC	i	-0.1
Cc1ccc(/C=N/NC(=O)c2cc(C3CC3)nc3ccccc23)o1	i	-0.07
O=C(Nc1cc(C(F)(F)F)ccc1Cl)c1cc2nc3c(c(C(F)(F)F)n2n1)CCCC3	i	0.39
COc1ccc(S(=O)(=O)N2CCC(C(=O)NCc3ccco3)CC2)cc1C	i	-1.5
Cc1cc(C)nc(N(C#N)Cc2ccc(Br)cc2)n1	i	-0.35
O=C(Nc1cccc(C(F)(F)F)c1)c1n[nH]c(Cn2cncn2)n1	i	0.22
O=C(NCCCCc1ccccc1)C1CC(c2cccc([N+](=O)[O-])c2)=NO1 (stereo not given)	i	-0.77
CNS(=O)(=O)c1cc(NC(=O)CCCNC(=O)c2ccc(Cl)cc2)ccc1C	i	-0.36
CC(C)OP(=O)(OC(C)C)C(O)c1ccc(N(C)C)cc1 (stereo not given)	i	-0.58
CC(C)(C)c1ccc(NC(=S)NCCc2ccccn2)cc1	i	0.09
Cc1ccc(OCC(=O)O/N=C(\N)Cc2cccs2)cc1C	i	-0.13
CC(=O)Nc1ccc(NC(=O)CCC(=O)OCC(=O)c2ccc(C)c([N+](=O)[O-])c2)cc1	i	0.18
COc1ccc(CCNC(=O)c2ccc3c(c2)N(Cc2ccc(F)cc2)CCS3)cc1OC	i	0.47
CCn1c(C)c(C(C)=O)c(N2CCN(c3ccccc3)CC2)nc1=S	i	1.4
O=C(Nc1ccccc1-c1nnc(SCc2ccc(Cl)cc2Cl)o1)c1ccccc1	i	0.02
Nn1cnc2cc3ccccc3cc2c1=O	i	-0.61
CCc1nn(C)c2c(=O)c(=O)c2n(C)[nH]1	i	1.6
CC(NC(=O)c1cccs1)C(c1cccs1)N1CCOCC1 (stereo not given)	i	1.7
Cc1ccc(NC(=S)N=Nc2c(O)[nH]c3ccccc23)cc1	i	-0.07
Cc1cc(C(=O)N/N=C/c2sccc2C)no1	i	-0.72
COc1ccc(/C(C)=N/Nc2cc(C(F)(F)F)ccc2Cl)c(OC)c1	i	0.37
Cc1ccccc1Nc1nc(N)nc(CCl)n1	i	0.17
Cc1cccc(NC(=S)N/C(=N/S(=O)(=O)c2ccccc2)c2ccccc2)c1	i	-0.6
Cc1ccc(CNC(=O)c2oc3ccc(S(=O)(=O)N4CCC5(CC4)OCCO5)cc3c2C)cc1	i	-0.12
CCn1c(SCC(=O)N(C)CC(=O)Nc2ccc(OC)cc2)nnc1-c1ccco1	i	-0.66
N#C/C(=C(/O)COc1ccc(Cl)cc1)c1nc2ccccc2s1	i	-0.37
CCOC(=O)N1CCC(N(CCCOC)C(=O)Nc2ccc(CC)cc2)CC1	i	-1.8
CN1C(=O)/C(=C/c2ccccc2OCc2ccc(F)cc2)N(C)C1=S	i	-0.6
O=C(/C=C/c1cccnc1)c1ccc(F)c(F)c1	i	-0.18
COc1ccccc1C1CC(=O)NC(C)=C1C(=O)OC(C)C (stereo not given)	i	0.2
Cc1cccc(NC(=O)CC(C)S(=O)(=O)c2ccc3c(c2)NC(=O)CO3)c1C (stereo not given)	i	-0.48
O=C1C2CCCN2C(c2ccc(Cl)cc2)N1c1nccs1 (stereo not given)	i	-0.22
CN(C)S(=O)(=O)c1ccc(N2CCCC2)c(C(=O)N2CCN(c3ccc([N+](=O)[O-])cc3)CC2)c1	i	-0.51
Cc1cccc2c1c(N=NC(N)=S)c(O)n2C1OC(CO)C(O)C(O)C1O (stereo not given)	i	0.04
Cc1cc(=O)n2ccsc2n1	i	3.1
O=C(O)CN1CCCCC1	i	-1.2
N#CCc1ccc(Oc2ccc([N+](=O)[O-])cn2)cc1	i	-0.16
Cc1ccc(S(=O)(=O)N2CCCCC2)cc1C(=O)NCCC1=CCCCC1	i	0.03
CCOC(=O)c1c(NC(=O)CN2CCCCC2)sc2c1CCN(C(=O)OCC)C2	i	0.59
O=C(c1ccc2c(c1)OCO2)C1CCCN(Cc2c(F)ccc(F)c2F)C1 (stereo not given)	i	-0.82
O=C(NNC(=S)NC(=O)c1cccs1)c1ccc(O)cc1	i	-0.64
Cn1nnc2c[n+](CC(=O)c3ccc(Cl)cc3)cc(Br)c21	-6.1*	1.4*
O=C(Nc1ccc(Cl)c([N+](=O)[O-])c1)ONC1=NCCCCC1	i	-0.98
O=C1CSC(c2nn(-c3ccccc3)cc2-c2cc3ccccc3oc2=O)N1Cc1ccco1 (stereo not given)	i	-0.03
CCOc1cc(C(=S)N2CCCCC2)ccc1OCC(=O)NCc1ccccc1	i	0.25
